# Ab BasE inh – BasE siderophore enzyme inhibitors, primary screen, biochemical, Acinetobacter baumannii ATCC 17978, fluorescence polarization. inhibition, % (concentration not given with the values). 0.1% of 84,000 active. purified BasE, fluorescence polarization binding displacement;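 active = both replicates above 25% with normal brightness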;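 also: 0% = negative plate control signal and 100% = positive plate control signal; stock transfer was 100 nL into about 30 µL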
# KSHV LANA nucl – inhibitors of KSHV LANA-nucleosome binding, primary screen, biochemical, fluorescence polarization, FITC-LANA1-23, chicken nucleosomes; z-score (no concentration beside the values); FITC-LANA1-23 / chicken nucleosome fluorescence polarization; hits give low values; AID 720717, 2013; 0.3% of 51,000 active;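 active = both repeat wells score below -2 in polarization z-score versus plate sample wells, excluding overly bright wells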;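 also: 100 nL library stock added to about 30 µL; numbers are from one replicate; some results filed as inactive read as strong as hits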
#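 test system = FITC-LANA peptide and chicken nucleosomes | amount = 240 nM purified chicken nucleosomes (480 nM peptide binding sites), final | reagent = 50 nM FITC-LANA1-23 probe | medium = TEN-BT buffer, pH 7.5 | doses = single compound addition by pin transfer, 100 nL per well | timing = 10–45 min, room temperature | detection = fluorescence polarization | repeats = duplicate plates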
# * = called active by the depositor; . = not tested or not shown.
# Values run as follows: Ab BasE inh	KSHV LANA nucl
> CCc1cc2c(=O)c(-c3nc4ccccc4s3)coc2cc1OC(C)=O
 : -0.3	.
> O=C1CSC(=O)N1CCc1ccccc1
 : 1.3	0.062
> CC(CC(=O)Nc1ccc(F)cc1)N1CCCC1 (stereo not given)
 : .	-0.59
> O=C(CNc1cc(C(F)(F)F)cc(C(F)(F)F)c1)c1cc2cc(Cl)ccc2o1
 : 4.4	.
> O=C(CNC(=O)c1ccccc1)Nc1ccccc1
 : 0.2	-0.074
> O=C(Nc1ccccc1C(=O)Nc1ccc2c(c1)OCCO2)c1ccco1
 : 1.9	-0.29
> NC(=O)C(c1ccccc1)c1ccccc1
 : 1.2	-1.1
> O=C1c2ccccc2C(=O)N1N1C(=O)C2C3C=CC(C3)C2C1=O (stereo not given)
 : 3.9	0.29
> CN(C)CC#Cc1ccc(-c2ccn(S(=O)(=O)c3ccc(Cl)cc3)n2)s1
 : .	0.16
> COc1ccc(CC(=O)n2[nH]c(=O)cc(C)c2=O)cc1OC
 : 1.4	-0.59
> CCc1nnc(NC(=O)C(C)N2C(=O)C3C4C=CC(C4)C3C2=O)s1 (stereo not given)
 : 0.3	.
> COCCN(Cc1nc2ccccc2c(=O)[nH]1)C(=O)c1ccc(C)cc1C
 : 4.6	.
> CN1/C(=C2\C=NN(C)P2(=O)Nc2ccccc2)C(C)(C)c2ccccc21 (stereo not given)
 : 0.4	.
> NNC(=O)C12CCCC(CCC1)C2
 : -2.0	.
> N#Cc1c(N2CCN(C(=S)NCc3ccccc3)CC2)nc(-c2ccco2)c2c1CCCC2
 : -1.1	0.32
> COc1ccc(S(=O)(=O)N(CC(N)=O)Cc2ccccc2)cc1OC
 : 0.4	0.097
> CCOC(=O)c1cc(S(=O)(=O)NC(CC)c2cccs2)cn1C (stereo not given)
 : 0.2	-1.3
> COC(=O)c1c(NC(=S)NCCn2cc(Br)cn2)sc2c1CCC(C)C2 (stereo not given)
 : 2.8	0.39
> Cn1cccc1C(=O)OCC(=O)c1ccc2c(c1)OCCO2
 : -4.5	.
> COc1ccc(/C=C(\NC(=O)c2ccccc2)C(N)=O)cc1
 : 0.2	1.2

# Among those listed so far, these have a carbonyl joined to an NH by a bond outside any ring.
# Values run as follows: Ab BasE inh	KSHV LANA nucl
> CC(CC(=O)Nc1ccc(F)cc1)N1CCCC1 (stereo not given)
 : .	-0.59
> O=C(CNC(=O)c1ccccc1)Nc1ccccc1
 : 0.2	-0.074
> O=C(Nc1ccccc1C(=O)Nc1ccc2c(c1)OCCO2)c1ccco1
 : 1.9	-0.29
> NC(=O)C(c1ccccc1)c1ccccc1
 : 1.2	-1.1
> CCc1nnc(NC(=O)C(C)N2C(=O)C3C4C=CC(C4)C3C2=O)s1 (stereo not given)
 : 0.3	.
> NNC(=O)C12CCCC(CCC1)C2
 : -2.0	.
> COc1ccc(S(=O)(=O)N(CC(N)=O)Cc2ccccc2)cc1OC
 : 0.4	0.097
> COc1ccc(/C=C(\NC(=O)c2ccccc2)C(N)=O)cc1
 : 0.2	1.2

# (cont.)
# Values run as follows: Ab BasE inh	KSHV LANA nucl
> O=C(Cn1ncn2c(cc3ccccc32)c1=O)N1CCN(C(=O)c2ccco2)CC1
 : 0.5	-1
> Cc1nn(-c2ccccc2)c(C)c1Cc1ccc(O)cc1
 : .	-0.0045
> O=C(COC(=O)c1ccc(-n2cnnn2)cc1)Nc1cc(-c2ccccc2)nn1-c1ccccc1
 : -0.6	.
> Cc1noc(C)c1COC(=O)CSc1ncnc2sccc12
 : -0.1	.
> COc1cccc(Nc2nc(N)nc(CN3CCCCC3)n2)c1
 : -1.2	-0.018
> Nc1c(S(=O)(=O)c2cccs2)c2nc3ccccc3nc2n1Cc1cccs1
 : 1.9	-0.74
> CN(C)c1ccc(N/C(N)=N/c2nc(C(F)(F)F)cc(C(F)(F)F)n2)cc1
 : 2.1	.
> COc1ccc2c(c1)C(=O)N(c1ccccc1OC)C(=O)C2(Cc1c(C)noc1C)Cc1c(C)noc1C
 : 2.0	.
> c1nc2n(n1)C1=C(CCCC1)C1(CCCCC1)N2
 : 2.4	.
> Cc1ccc(S(=O)(=O)N2CCCN(C(=O)CN3CCOCC3)C2c2ccccc2)cc1 (stereo not given)
 : 1.7	-1.2

# One compound at a time, as listed above. Screens in order: Ab BasE inh | KSHV LANA nucl
# Cc1ccc(S(=O)(=O)N2CCCN(C(=O)CN3CCOCC3)C2c2ccccc2)cc1 (stereo not given) in the list: 1.7 | -1.2
# c1nc2n(n1)C1=C(CCCC1)C1(CCCCC1)N2 in the list: 2.4 | .
# Nc1c(S(=O)(=O)c2cccs2)c2nc3ccccc3nc2n1Cc1cccs1 in the list: 1.9 | -0.74
# COc1cccc(Nc2nc(N)nc(CN3CCCCC3)n2)c1 in the list: -1.2 | -0.018
# O=C(COC(=O)c1ccc(-n2cnnn2)cc1)Nc1cc(-c2ccccc2)nn1-c1ccccc1 in the list: -0.6 | .

# The list continues.
# Values run as follows: Ab BasE inh	KSHV LANA nucl
> CC(=O)N1CCN(Cc2nc3ccc(Cl)cc3n2CCO)CC1
 : 0.6	.
> Nn1c(SCC(=O)Nc2ccccc2)nnc1C1CCCCC1
 : -0.6	0.68
> CC(=O)N1c2ccc(S(=O)(=O)N(C)C3CCCCC3)cc2CC1C (stereo not given)
 : 0.8	-0.93
> CC1(C)CC(=O)C2=C(C1)NC1=C(C(=O)CC(C)(C)C1)C2c1ccc2c(c1)OCO2
 : 0.8	0.62
> Cc1csc2nc(CN3CCCC3c3cccs3)cc(=O)n12 (stereo not given)
 : 1.6	.
> CCN(CC)c1ccc(C2N(C(=O)N3CCOCC3)CCN2S(=O)(=O)c2ccc(C)cc2)cc1 (stereo not given)
 : 2.3	-0.73
> CCCCNc1nc(-c2cccc(OC)c2)no1
 : -0.4	-0.81
> O=C1NN(c2ccccc2)C(=O)C2C3C=CC(C4CC34)C12 (stereo not given)
 : 1.1	-0.75
> COc1ccccc1NC(=O)c1cccc(S(=O)(=O)N2CCCC2)c1
 : -1.1	.
> CN1CCN(NC(=O)COc2ccc3c(c2)CCC3)CC1
 : -0.6	0.11

# Some of the entries so far, bar-delimited:
structure | Ab BasE inh | KSHV LANA nucl
NNC(=O)C12CCCC(CCC1)C2 | -2.0 | .
Cc1noc(C)c1COC(=O)CSc1ncnc2sccc12 | -0.1 | .
O=C1c2ccccc2C(=O)N1N1C(=O)C2C3C=CC(C3)C2C1=O (stereo not given) | 3.9 | 0.29
O=C1NN(c2ccccc2)C(=O)C2C3C=CC(C4CC34)C12 (stereo not given) | 1.1 | -0.75
O=C1CSC(=O)N1CCc1ccccc1 | 1.3 | 0.062

# The results go on.
# Values run as follows: Ab BasE inh	KSHV LANA nucl
> CNc1ccc(Br)cc1-c1n[nH]c(=S)[nH]c1=O
 : 1.8	0.61
> CN(Cc1nc(-c2ccccc2)no1)C(=O)N1CCOCC1
 : 2.4	-0.27
> O=C(NN1C(=O)C2C3C=CC(C3)C2C1=O)c1ccncc1 (stereo not given)
 : 2.5	.
> COc1ccc(NC(=O)COC(=O)Cn2cnc3ccccc3c2=O)c(OC)c1
 : 0.3	.
> Cc1cc(S(=O)(=O)N2CCCCC2)c(C)c(C)c1C
 : 1.9	0.75
> CCC(C)(C)NCC(=O)Nc1ccc(OC(F)(F)F)cc1
 : 0.6	.
> Cc1ccc(C(=O)CC(C(=O)c2ccc(C(F)(F)F)cc2)c2cccs2)cc1 (stereo not given)
 : 2.1	.
> COc1ccc(OC/C(N)=N/OC(=O)c2cc(C)on2)cc1
 : 0.9	-0.23
> Cc1ccc2nc3n(c(=O)c2c1)CC(O)=C3C#N
 : -2.2	.
> COc1ccc(-n2c(C)nc(=O)c(-c3ccccc3)c2C)cc1
 : -0.8	0.53
> O=C(O)CCCC(=O)n1cnc2ccccc21
 : 2.0	0.66
> O=C(CC1NC(=O)NC1=O)Nc1ccccc1 (stereo not given)
 : 0.8	-0.58
> O=C1CN(C(=O)CCN2CCOCC2)C(c2ccccc2)c2cc(Br)ccc2N1 (stereo not given)
 : 0.7	-0.09
> O=C(Cc1noc2ccccc12)Nc1ccc(Cl)cc1
 : 3.0	0.036
> CC(C)CN(CC(C)C)c1nnc(NC(=O)c2cc(-c3ccc(Br)cc3)on2)s1
 : 1.4	-0.84
> CCOC(=O)CSc1nc(-c2ccccc2)ns1
 : -1.9	-0.13
> COc1cc2c(cc1OC)C1=C(C#N)CN(CC(=O)O)CN1CC2
 : 2.7	.
> N#Cc1c(NC(=O)CC(c2ccccc2)c2ccccc2)oc(-c2ccco2)c1-c1ccco1
 : -1.5	.
> COc1cc2c(C#N)c(N3CCN(S(=O)(=O)c4ccccc4C(F)(F)F)CC3)nc(N)c2c(N)n1
 : -4.4	.
> N#CCC(=O)N1N=CCC1(O)C(F)(F)F (stereo not given)
 : -1.1	.
> N=C1S/C(=C\c2ccccc2)C(=O)N1c1ccc(F)cc1
 : 2.0	.
> CC(C)CNCC(=O)Nc1cc(C(F)(F)F)cc(C(F)(F)F)c1
 : 2.1	.
> NC(=O)C1CCN(C(=O)CCCn2c(=S)[nH]c3ccccc3c2=O)CC1
 : -1.3	0.98
> CCC1CCC(N2CCN(c3ccccc3F)CC2)CC1 (stereo not given)
 : -2.8	-0.42
> COc1ccc(-c2nsc3c(N4CCN(S(=O)(=O)c5cccc(F)c5)CC4)ncnc23)cc1
 : -1.1	-0.23
> CCOC(=O)Cn1c2c(c(=N)c3c1CCC3)CCC2
 : 0.5	0.13
> COc1ccc(NC(=O)N2CCC(n3cnc4ccccc43)CC2)cc1
 : 0.8	-0.16
> CCn1nnc2c(NCCc3ccc(S(N)(=O)=O)cc3)ncnc21
 : 2.4	-0.68
> CCC(C)NC(=O)Cc1n[nH]c(=O)c2ccccc12 (stereo not given)
 : -2.1	.
> CS(=O)(=NC(=O)Nc1ccccc1)c1ccsc1 (stereo not given)
 : 3.4	-1
> CC1=NN(C(=O)c2ccccc2)C(O)(C(F)(F)OC(F)(F)F)C1 (stereo not given)
 : 0.6	-0.42
> Cc1ccccc1NC(=O)Nc1ccccc1N1CCCCC1
 : 1.7	.
> Cc1c(NC(=O)C(Cc2ccccc2)N2C(=O)C3C4C=CC(C4)C3C2=O)c(=O)n(-c2ccccc2)n1C (stereo not given)
 : 2.5	-0.92
> Cc1cccc(N2C(=O)c3ccc(Oc4ccc5c(c4)C(=O)N(c4cccc(C)n4)C5=O)cc3C2=O)n1
 : 3.9	-0.96

# An excerpt, so the mix of outcomes need not match the whole.
